NPYLR7 ag: activates Aedes aegypti NPYLR7 receptor; HEK293T NPYLR7/Galpha15, GCaMP6s calcium fluorescence; activation, % at 10 µM; 270,000 tested, 0.15% active; in the data active = activation above about 40%;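 also: 0% = vehicle and 100% = reference agonist at the receptor; some compounds past the cut are filed as inactive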
NPYLR7 ag max-min: further read-out of NPYLR7 ag, marked with its call; activation, %; measured here: Max-Min RFU normalised activation; some inactives read as strong as hits;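 span of the calcium signal over five minutes; 0% = vehicle and 100% = native peptide agonist; compound fluorescence can raise it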
* = called active by the depositor; & = joins results of further samples. An excerpt; rates above refer to the full screens.

SMILES | NPYLR7 ag | NPYLR7 ag max-min
COCC(=O)N1CCN(c2cc(-n3nc(C)cc3C)ncn2)CC1 | -10.6 | -16.6
COc1ccc(F)c(F)c1-c1nccn1-c1ccc(-n2cncn2)cc1 | -6.2 | -11.3
COc1ccc(Cc2nnc(N3CCCCC3)[nH]c2=O)cc1 | 12.5 | 8.6
O=C1OCCC1N1CCCC(NS(=O)(=O)c2cccc(F)c2)C1 (stereo unspecified) | 6.4 | 2.1
c1ccc(Cn2nnc3c(Sc4ncco4)ncnc32)cc1 | 11.4 | 1.2
CC1CCN(c2ccc(C(=O)N3CCC(Oc4cccnc4)CC3)cn2)CC1 | 6.7 | 4.9
CCOC(=O)C(=O)Nc1ccc(-c2cccc(-c3ccc(OC)cc3)n2)cc1 | -1.4 | -1.0
CCCn1cc(S(=O)(=O)c2ccc(OC)cc2)c(=O)c2cc(F)c(N3CCC(C)CC3)cc21 | -13.4 | -16.3
COc1ccc(-n2nc(C)c3c(C(F)(F)F)cc(C)nc32)cc1 | -0.2 | -1.7
Cc1cc(N2CCN(C(=O)c3ccc(F)cc3)CC2)nc(-c2cccc(F)c2)n1 | 6.5 | 7.2
CNC1(c2nnnn2-c2c(C)cccc2C)CCOC(C)(C)C1 (stereo unspecified) | -1.2 | -4.4
COc1ccc(C(=O)N(C)CC2CCCCO2)cc1OC1CCN(C(C)=O)CC1 (stereo unspecified) | 5.9&18.1 | 3.4&9.7

The list continues:
SMILES | NPYLR7 ag | NPYLR7 ag max-min
COc1ccc(-c2nn(-c3cccc(F)c3)c(OC(C)=O)c2-c2ccc(NC(=O)CC(C)(C)C)cc2)c(OC)c1 | -2.8 | 5.5
O=C(C1CCN(C(=O)[C@@H]2CCCN2C(=O)Nc2ccccc2Br)CC1)N1CCCCC1 | -0.4 | 2.1
COc1ccccc1C1c2cccn2CCCN1Cc1cccc(Cl)c1 (stereo unspecified) | 28.0 | 22.0
O=C(CCC1CCN(Cc2cccc3c2oc2ccccc23)CC1)N1CCCC1 | 10.4 | 4.8
O=C(NCCCN1CCOCC1)C1CCCN(Cc2ccco2)C1 (stereo unspecified) | 27.6 | 18.0
CC(=O)c1c(C(C)=O)c(C)n(-c2cc(C)c(C)cc2N)c1C | 3.7 | 3.7
CCOC(=O)c1nn(-c2ccccc2Cl)c(=O)cc1OCC(=O)NCc1ccccc1 | 6.9 | 2.7
CC(C)(C)c1cc(C(=O)NCCCn2ccnc2)cc(C(C)(C)C)c1 | -1.6 | -6.9
Nc1nc(SCC(=O)N2CCOCC2)[nH]c(=O)c1NC(=O)c1ccc(Br)cc1 | 0.4 | -1.2
CC1CC(=NNC(=O)C2CC2)CC(C)(C)C1 (stereo unspecified) | 0.9 | 0.2
O=C(CCn1nnc2ccccc21)NCc1cccnc1-n1ccnc1 | 0.0 | -2.9
CC1CN(C(=O)Cc2csc(Cc3ccccn3)n2)CC(C)(C)O1 (stereo unspecified) | 18.1 | 14.6

Next results:
SMILES | NPYLR7 ag | NPYLR7 ag max-min
Cc1ccc(CN(C)C(=O)c2n[nH]c(=O)c3ccccc23)c(C)c1 | 2.1 | 0.7
CCN(CC)c1ccc(C2NC(=O)NC(C)=C2C(=O)OCC(C)C)cc1 (stereo unspecified) | -1.1 | -6.2
COCC(=O)Nc1ccc(N(C)C)c(CN(C(=O)C2CC2)C2CC2)c1 | -4.6 | 1.1
CN(CCN1CCOCC1)C(=O)CC(c1ccccc1)c1ccccc1F (stereo unspecified) | 0.5 | -0.1
CC(C)COCC(O)CNc1ccc(-n2nc(OCC(C)C)nc2-c2ccccc2F)cc1 (stereo unspecified) | -2.6 | 1.5
CN1C(=O)C(=Cc2ccc(-c3cc([N+](=O)[O-])ccc3O)o2)C(=O)N(C)C1=O | -12.5 | -20.6
COC(=O)Cc1c(C)c2cc3c(c(C)c2oc1=O)OCN(CC(C)O)C3 (stereo unspecified) | 7.3 | 52.3
O=C(c1cccc2ccccc12)C1CCCN(C(=O)c2ccc3nccnc3c2)C1 (stereo unspecified) | 3.9 | -0.5
Cc1ncc(C(=O)N2CC[C@@](C)(O)[C@@H](Cc3ccccc3)C2)cn1 | 6.7 | 4.0
O=C(CC(c1ccccc1)c1ccccc1)NCCCOc1cccc([N+](=O)[O-])c1 | 1.0 | -2.2
CC(C)C(C)NC(=O)c1cc(Br)c2c(c1)OCCO2 (stereo unspecified) | -3.1 | -3.9
COc1ccc2c(c1)C1(SCCN1C(=O)c1ccc(Cl)cc1)C(=O)N2Cc1cccc(C#N)c1 (stereo unspecified) | 7.4 | 6.0

Next section
SMILES | NPYLR7 ag | NPYLR7 ag max-min
COCCCN(CC(=O)N(Cc1cccn1Cc1ccccc1Cl)CC(C)C)C(=O)C12CC3CC(CC(C3)C1)C2 | -0.2 | 14.6
COc1cc(OC)c(NC(=O)c2ccc3c(c2)COCO3)cc1Cl | 8.0 | 2.4
Cc1cc(N/C=C(/Cl)C(=O)C(F)(F)F)n[nH]1 | 1.3 | -0.8
Cc1ccc(C(NC(=O)c2ccc3c(c2)[nH]c(=O)n3C)C2CC2)cc1 (stereo unspecified) | 2.6&10.0 | -0.9&7.2
Cc1cccc(S(=O)(=O)NC(=O)C2(C)CCN2C(=O)c2ccco2)c1 (stereo unspecified) | -5.0 | -9.1
O=C(c1cccc(I)c1)N1CCN(c2ccccn2)CC1 | -1.8 | -6.2
CCOC(=O)c1cc(=O)c2ccc(Cl)cc2o1 | 6.4 | 2.9
Cc1nccc(NNS(=O)(=O)c2ccccc2)n1 | -4.9 | -5.1
Cc1ccccc1Cn1nc(C2CC2)c2cnn(-c3ccccc3)c2c1=O | 1.8 | 0.2
N#CCOc1ccc(-c2nnco2)cc1 | -2.9 | -4.5
CNS(=O)(=O)c1ccc(CN2CCCC(CNC(C)=O)C2)cc1 (stereo unspecified) | 7.2 | -1.6
CCOCCOc1nc(-c2cccs2)n(-c2ccc(NC(=O)COC)cc2)n1 | 12.3 | 27.1

Next records.
SMILES | NPYLR7 ag | NPYLR7 ag max-min
CCc1nc2n(n1)C(=O)C(C(c1ccc(C(C)C)cc1)N1CCN(C)CC1)S2 (stereo unspecified) | -4.7 | -7.1
CCn1c(CN2CCCC(C(=O)c3cccc(Cl)c3)C2)nc2ccccc21 (stereo unspecified) | -0.6 | -1.4
CCn1c(O)c(C(C)=Nc2ccnn2C2CCCCC2)c(=O)n(CC)c1=S | 9.6 | 5.2
CC1(C)C(c2ccc(Cl)cc2)=[N+]([O-])C2(CCCC/C2=N/O)N1O (stereo unspecified) | -15.1 | -23.8
O=C(c1ccccc1-c1ncc[nH]1)N1CCCC(c2ccn[nH]2)C1 (stereo unspecified) | 9.4 | 5.1
CC1=CC[C@@H]2CN(C(=O)c3ccnc(-n4cnnc4)c3)C[C@@H]2C1 | -4.2 | -4.9
COc1ccc(Cn2ccc3nc4ccn(N)c(=O)c4cc3c2=O)cc1 | 3.8 | -0.5
COCCCNC(=O)c1cc(-c2ccc(Cl)cc2)n(-c2ccccc2OC)c1C | 2.8 | 16.0
COc1cccc(-c2nc3cc(C)ccn3c2Nc2c(C)cccc2C)c1 | 20.4 | 16.4
Cc1csc(NC(=O)CSc2ccc(-c3sc(-c4ccccc4)nc3C)nn2)n1 | -16.8 | -20.3
CCc1nc2n(n1)C(=O)C(C(c1ccc(Cl)cc1)N1CCC(C)CC1)S2 (stereo unspecified) | 7.1 | 16.0
Clc1ncnc2c1[nH]c1ccc(Br)cc12 | 6.7 | 1.5

(list continues)
SMILES | NPYLR7 ag | NPYLR7 ag max-min
COc1ccc(C(=O)N2CCN(c3cc(C)cc(C)c3)C(=O)C2C)cc1 (stereo unspecified) | -8.2 | -1.0
O=C(CC1CCCC1)N1CCN(S(=O)(=O)c2ccc(F)cc2F)CC1 | 2.2 | 1.1
CCOCCC(=O)N1CCN(Cc2cccc(-c3noc(-c4cccc(C(F)(F)F)c4)n3)c2)CC1 | 4.5 | 5.3
CCn1c(SCC(=O)Nc2cc(C)on2)nnc1C1CC1 | 0.7 | 10.6
CC(C)(C)c1ccc(CC(=O)N2CCC2(C)C(=O)O)cc1 (stereo unspecified) | 3.5 | -0.7
OCc1nc(-c2sccc2Br)cs1 | -5.5 | -7.3
CC(=O)Nc1ccc2nc(CN(C)Cc3noc(C)n3)ccc2c1 | 4.4 | -1.7
CCC(C(=O)N1CCN(C(=O)c2cc(-c3cccc(OC)c3)n(-c3ccccc3F)c2C)CC1)c1ccccc1 (stereo unspecified) | -1.8 | 8.8
CC1COCCN1c1nc(C2CC2)ns1 (stereo unspecified) | 17.6 | 12.3
Cc1c(C)c(C)c(S(=O)(=O)Nc2cc(Cl)ccc2C(=O)N(C)C)c(C)c1C | 1.8 | -0.1
CN(C)c1ccc(NC(=O)c2ccco2)cc1CN(Cc1cccc(F)c1)C(=O)c1ccccc1Cl | -1.6 | 1.7
CC(C)CC(NC(=O)c1cn2ccsc2n1)c1nnc2n1CCNCC2 (stereo unspecified) | 10.8 | 6.4

(further entries)
SMILES | NPYLR7 ag | NPYLR7 ag max-min
COC(=O)Nc1ccc(CNc2nc3ccccc3s2)cc1 | 4.8 | -5.1
Cc1c(C(=O)NCc2ccccc2)sc(=O)n1CC(=O)c1ccc(F)cc1 | 8.0 | -0.5
Cc1cc(N2CCN(c3cccc(C(F)(F)F)c3)CC2)nc(SCc2cccc(C(=O)NCc3ccco3)c2)n1 | 10.2 | 12.2
COc1ccc(-c2ccc(C(=O)N3CCCCC3C)s2)c(OC)c1OC (stereo unspecified) | 0.8 | -1.2
COc1cn(CC(=O)NC(C)C)c(CN2CCC(C)CC2)cc1=O | 0.6 | -0.8
COc1ccc(CCN(C)C(=O)CCCOc2ccccc2)cc1OC | -10.5 | -15.7
Cc1ccc(CC2(NC(=O)C(C)NS(C)(=O)=O)CC2)cc1 (stereo unspecified) | 18.7 | 9.7
COCCN1CCN(C(=O)c2ccc(-c3cc(-c4cccc(OC)c4)n[nH]3)cc2)CC1 | 7.0 | -4.3
CCOC(=O)CNC(=O)CSc1nc2c(cnn2CCO)c(=O)[nH]1 | 5.9 | 4.0
COC(=O)Cn1c(SCCOc2ccc(C)cc2)nc2ccccc21 | 0.3 | 6.0
CCC(C)n1c(C)cn2c3c(=O)n(Cc4ccc(Cl)cc4)c(=O)n(C)c3nc12 (stereo unspecified) | 4.9 | 1.8
CNC(=O)Cn1c(CO)cnc1SCC(=O)Nc1ccc(C)cc1 | 4.4 | 3.5

Whole records, quoted from the list. Order of values: NPYLR7 ag | NPYLR7 ag max-min
CC(C)(C)c1cc(C(=O)NCCCn2ccnc2)cc(C(C)(C)C)c1 is listed as -1.6 | -6.9
COc1ccc(-c2ccc(C(=O)N3CCCCC3C)s2)c(OC)c1OC (stereo unspecified) is listed as 0.8 | -1.2
Cc1cc(N/C=C(/Cl)C(=O)C(F)(F)F)n[nH]1 is listed as 1.3 | -0.8

(continued)
SMILES | NPYLR7 ag | NPYLR7 ag max-min
Fc1ccc(Cc2nc(CSc3ccc(C(F)(F)F)cn3)cs2)c(Cl)c1 | 26.0 | 31.7
Nc1[nH]n(-c2ccccc2)c(=O)c1N=Nc1cc2c(cc1[N+](=O)[O-])OCCO2 | 19.8 | 4.8
CCc1ncc(C(=O)N(C)Cc2n[nH]c3c2CCCC3)cn1 | 8.1 | -2.0
Cc1noc(C(C)Sc2n[nH]c(C3CCCC3)n2)n1 (stereo unspecified) | -11.0 | -11.8
CCOC(=O)N1CCC(NC(=O)CN2C(=O)C(c3ccccc3)NC(=O)c3ccccc32)CC1 (stereo unspecified) | -0.5 | 14.1
CCN1CCN(S(=O)(=O)c2nn(Cc3ccccc3C)cc2C(=O)O)CC1 | -4.9 | -5.5
Cc1cc(C)c(NC(=O)CN(C)C(=O)CCc2ncc(-c3ccc(F)cc3F)o2)c(C)c1 | 0.8 | 0.2
COc1ccc(C2CC(c3ccccc3Cl)=NN2C(=O)CN2CCCC2)cc1 (stereo unspecified) | -0.8 | -0.6
CCC12CC3CC(O)(C1)CC(C(=O)NCCS(=O)(=O)CC)(C3)C2 (stereo unspecified) | -3.2 | 11.9
CCOCCOc1nc(-c2ccccc2C)n(-c2cccc(NC(=O)c3ccc(F)cc3)c2)n1 | -19.9 | -15.2
O=C(c1cc(-c2ccncc2)n[nH]1)N1CCCC(CCc2ccccc2)C1 (stereo unspecified) | -0.5 | -6.4
O=C(NCc1ccccc1)c1c(O)nc2sccn2c1=O | -1.2 | 1.2

New compounds follow
SMILES | NPYLR7 ag | NPYLR7 ag max-min
CC(C)Oc1ccc(N(Cc2ccccc2)C(=O)c2ccccc2)cn1 | 3.7 | 0.7
COc1cccc(NC(=O)NCCS(=O)(=O)c2c(C)n(C)c3ccccc23)c1 | 3.9 | 12.4
O=C(CSc1nnnn1-c1ccccc1)NCc1ccco1 | -6.4 | -7.7
CCN(C)c1ccc(CNc2nccnc2C#N)cc1F | 4.5 | 4.8
COc1ccc(CN(CC(=O)N2CCN(c3cccc(C)c3)CC2)C2CC2)cc1 | 6.4 | 4.2
C=CCSc1nnc(-c2cccc(OC)c2)n1-c1ccccc1 | -3.8 | -5.0
CC(C)N(CC(=O)N1c2ccccc2-n2cccc2C1c1ccc(F)cc1)C(=O)c1ccc([N+](=O)[O-])cc1 (stereo unspecified) | -6.3 | 3.9
COc1ccc(S(=O)(=O)NCCCn2nc(-c3cccs3)ccc2=O)cc1OC | -2.7 | -4.7
Cc1ccccc1OCC(=O)NCc1ccc(C)n1C | 1.0 | 0.6
CC(=O)NCC1CCCN(c2nc(C)c(CC(C)C)c(C)n2)C1 (stereo unspecified) | -3.4&-1.4 | -3.4&-3.8
Cc1cc(C(=O)N2CCC(n3cc(-c4ccccn4)nn3)CC2)c(C)o1 | 4.2 | 2.5
CCn1nnc2c(N3CCN(S(=O)(=O)Cc4ccccc4)CC3)ncnc21 | -1.4 | 18.2

Continued.
SMILES | NPYLR7 ag | NPYLR7 ag max-min
COC(=O)c1cc(OC)c(OC)cc1NC(=O)c1ccc(Br)o1 | 13.6 | 6.3
CCc1nnc(NC(=O)CSc2c(C)cnc3c2c(=O)n(C)c(=O)n3C)s1 | 6.5 | 10.8
Cc1cc(CNC(=O)C2CCCN(C(N)=O)C2)c2[nH]c(-c3ccccc3)c(C)c2c1 (stereo unspecified) | 8.6 | 6.1
CCC(C(=O)N(CC(=O)N(CCc1c[nH]c2ccccc12)Cc1ccccc1OC)C(C)C)c1ccccc1 (stereo unspecified) | -4.8 | 3.9
CC(=O)Cn1c(=O)c2c(nc3n2CC(C)CN3c2ccc(C)cc2)n(C)c1=O (stereo unspecified) | 4.9 | -0.3
